Source: PubChem (National Center for Advancing Translational Sciences (NCATS))
Rango complex inh: qHTS Assay for Inhibitors of Rango (Ran-regulated importin-beta cargo) - Importin beta complex formation | 340,000 compounds, 0.031% hits | Importin subunit beta-1 (Homo sapiens), Q14974 | Rango CFP/YFP FRET sensor + importin beta, 45 min | Potency, µM (doses to about 92.2 µM), without a hit: at the top dose inhibition of complex formation; active = rising FRET ratio curve, often small or poorly fitted; inconclusive = mostly compound fluorescence or quenching in the first reads; inactive = flat curves in all reads;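 note: potency is the fitted concentration of half-maximal effect; 0% = DMSO wells and 100% = buffer wells lacking importin beta; nearly all actives have a fitted effect of over 15% in size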
Target sequence (Q14974 whole entry, looked up): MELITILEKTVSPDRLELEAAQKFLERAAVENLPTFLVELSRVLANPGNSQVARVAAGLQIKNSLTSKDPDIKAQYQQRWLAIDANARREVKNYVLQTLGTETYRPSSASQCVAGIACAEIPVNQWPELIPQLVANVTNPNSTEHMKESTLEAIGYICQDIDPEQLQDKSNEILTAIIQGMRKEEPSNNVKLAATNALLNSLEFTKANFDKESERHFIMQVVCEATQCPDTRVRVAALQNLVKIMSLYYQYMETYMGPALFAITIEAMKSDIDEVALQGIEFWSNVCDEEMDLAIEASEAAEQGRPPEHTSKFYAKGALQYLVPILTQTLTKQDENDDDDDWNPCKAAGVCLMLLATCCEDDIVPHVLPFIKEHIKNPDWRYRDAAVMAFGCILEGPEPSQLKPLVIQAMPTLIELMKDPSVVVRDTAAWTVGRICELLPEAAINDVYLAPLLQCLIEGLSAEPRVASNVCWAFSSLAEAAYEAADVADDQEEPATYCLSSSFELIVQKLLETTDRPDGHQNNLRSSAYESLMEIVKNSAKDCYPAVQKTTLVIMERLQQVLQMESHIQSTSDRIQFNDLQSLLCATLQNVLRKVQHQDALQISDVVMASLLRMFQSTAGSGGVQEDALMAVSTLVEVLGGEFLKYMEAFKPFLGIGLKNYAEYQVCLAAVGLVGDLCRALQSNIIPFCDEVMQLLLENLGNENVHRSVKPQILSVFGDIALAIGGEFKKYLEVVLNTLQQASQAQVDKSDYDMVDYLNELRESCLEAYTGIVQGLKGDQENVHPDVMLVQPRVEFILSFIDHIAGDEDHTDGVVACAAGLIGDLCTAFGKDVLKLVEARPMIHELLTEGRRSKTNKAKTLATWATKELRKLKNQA
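FRET biosensor Rango (snurportin 1 IBB between N-terminal EYFP and C-terminal Cerulean), 50 nM in PBS/1 mM DTT/0.02% Tween-20/0.1% BSA, preincubated 5 min RT with compound; 0.125 microM importin beta added, 45 min RT, CFP/YFP FRET ratio read.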
Rango dissoc inh: qHTS Assay for Inhibitors of RanGTP induced Rango (Ran-regulated importin-beta cargo) - Importin beta complex dissociation. Snurportin-1 (Homo sapiens) + GTP-binding nuclear protein Ran (Homo sapiens) + Importin …. Biochemical FRET Rango-importin beta, RanGTP-induced dissociation. Potency, µM (series often up to 46.1 µM), inactives show at the highest dose activity change, negative = inhibition. 340,000 compounds, 0.071% hits; active means falling FRET ratio curve, often poorly fitted, with flat reads before Ran was added; inconclusive means other falling curves, or compound fluorescence or quenching; inactive means flat or rising ratio curve;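 note: potency is the fitted concentration of half-maximal effect; % of control where 0% means no effect; nearly all actives have a fitted effect of over 45% in size; -100% = wells without RanGTP and RCC1; the record marks most hits as doubtful in a second field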
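Compounds preincubate 5 min with complex of recombinant Rango and importin beta in PBS with 1 mM DTT. Ran (0.6 uM) loaded with 2 mM GTP plus 0.2 uM RCC1 starts dissociation; FRET is recorded 45 min later.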
miR-21 reporter: qHTS Assay for Modulators of miRNAs and/orActivators of miR-21 | HeLa miR-21 FLuc reporter, luciferase, 48 h | Potency, µM (highest dose often 38.3 µM), inactives show top-dose reporter change, positive = more light | 340,000 tested, under 10 active | AID 2288, 2010; active = well fitted rising curve with a large enough effect; inconclusive = small, poorly fitted or top-dose-only effect; inactive = no such curve, though single readings can be large or run the other way;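 note: % of control where 0% means no effect; miR-21 action dims this reporter so a rising signal means less miR-21 action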
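Using DMEM plus 10% FBS, HeLa miR-21-FLuc cells are incubated with test compounds (final up to about 40uM) for 48 hours; firefly luciferase signal is then imaged following reagent-mediated lysis.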
GLA inh pH 4.5: qHTS Assay for Inhibitors of Human alpha-Galactosidase at pH 4.5; Alpha-galactosidase A (Homo sapiens), P06280; purified enzyme, 4-MU-alpha-Gal fluorescence, pH 4.5; activity change, negative = inhibition, % at 105 µM; 230,000 tested, under 10 active; AID 1467, 2008; inconclusive = small, poorly fitted or top-dose-only inhibition, or a rising curve; inactive = flat fitted curve, though single readings scatter; no compound was filed as active;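 note: 0% = full activity with enzyme and -100% = basal without enzyme; dose as in the result columns while the protocol names 77 µM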
Numbers without * were called inactive; ? = inconclusive; . = not tested or not shown; & = joins results of further samples.

nr | Rango complex inh | Rango dissoc inh | miR-21 reporter | structure | GLA inh pH 4.5
1 | -0.7% | -0.7% | -27.0% | CCc1c(C)[nH]c2ccc(C)cc2c1=O | -10.1
2 | 7.4% | 2.3% | -2.0% | COc1cc(NC(=O)Cn2cnc(S(=O)(=O)N3CCOCC3)c2)cc(OC)c1OC | .
3 | 1.4% | -3.1% | 9.6% | O=Nc1c2ccc[nH]c-2c2ccc([N+](=O)[O-])cc12 | -9.9
4 | 7.5% | 27.5% | -2.4% | COc1cc(/C=N/N2CCN(C3c4ccccc4-c4ccccc43)CC2)cc(OC)c1OC | -6.3
5 | -1.9% | -0.2% | 0.3% | COC(=O)c1c(NC(=S)NN2CCOCC2)sc2c1CCCC2 | -8.3
6 | -3.6% | -11.3% | . | COc1ccc(NC(=O)c2ccccc2NC(=O)CN2CCCCCC2)cc1 | .
7 | 0.8% | -17.4% | . | Cc1sc(NC(=O)C2=COCCO2)nc1-c1ccc(F)cc1 | .
8 | 0.4% | -1.4% | -3.3% | CCn1c2ccccc2c2nnc(SCC(=O)Nc3cc(C)on3)nc21 | -12.4

Some of these compounds in order of their number in miR-21 reporter, high to low.
nr | Rango complex inh | Rango dissoc inh | miR-21 reporter | structure | GLA inh pH 4.5
4 | 7.5% | 27.5% | -2.4% | COc1cc(/C=N/N2CCN(C3c4ccccc4-c4ccccc43)CC2)cc(OC)c1OC | -6.3
8 | 0.4% | -1.4% | -3.3% | CCn1c2ccccc2c2nnc(SCC(=O)Nc3cc(C)on3)nc21 | -12.4
1 | -0.7% | -0.7% | -27.0% | CCc1c(C)[nH]c2ccc(C)cc2c1=O | -10.1

Continued:
nr | Rango complex inh | Rango dissoc inh | miR-21 reporter | structure | GLA inh pH 4.5
9 | 2.0% | 3.8% | -1.6% | O=C(CNC(=O)c1ccc(Oc2ccccc2)cc1)OCc1ccc(Br)cc1 | -1.0
10 | -2.4% | -3.1% | 0.8% | O=C(CCC1CCN(C(=O)Cc2c(F)cccc2F)CC1)NC1CC1 | .
11 | 0.0% | -21.0% | -2.6% | COc1cc(OC)cc(C(=O)NCCNC(=O)c2ccco2)c1 | 5.8
12 | 0.1% | -3.1% | 1.4% | COc1cc(OC)cc(C(=O)N[C@H](C(=O)Nc2ccc(S(=O)(=O)N(C)C)cc2)C(C)C)c1 | -13.9
13 | 3.0% | 32.9% | 13.5% | CC(C(=O)O)c1ccc(N2Cc3ccccc3C2=O)cc1 (stereo not given) | 4.1
14 | ? | ? | . | CC1=CC(c2ccccc2)n2nc(N)nc2N1 (stereo not given) | .
15 | -1.9% | -15.4% | 0.1% | COc1ccc(/C=C/C2=CC(C)(C)NC(=S)N2)cc1 | -2.3
16 | 1.3% | -12.7% | -7.0% | Cc1cc(C(=O)N2CCN(c3ncccc3C#N)CC2)no1 | 5.8
17 | -1.4% | 4.5% | -12.1% | COc1ccc(-n2nnnc2SCC(=O)c2ccc3c(c2)OCCO3)cc1 | -4.1
18 | 0.2% | 0.3% | 0.4% | CCOc1ccc(CNC(=S)Nc2ccccc2)cc1Cl | .
19 | -0.9% | 4.0% | -4.9% | C=CCNC(=O)C1CC(=O)N(c2ccc(OCC(=O)Nc3ccc(Cl)cc3)cc2)C1 (stereo not given) | .
20 | 8.4% | 21.7% | -2.6% | CN(C(=O)COC(=O)/C=C/c1cn(-c2ccccc2)nc1-c1ccc2c(c1)OCCO2)C1CCS(=O)(=O)C1 (stereo not given) | 12.4
21 | -0.2% | -3.3% | -66.7% | CCc1ccc(-c2csc(NC(=O)Oc3ccccc3)n2)cc1 | -0.4
22 | 0.1% | 28.8% | 7.6% | CCC(C(=O)Nc1nc(C)c(C(=O)OC)s1)c1ccccc1 (stereo not given) | 2.8
23 | -0.9% | -11.5% | -23.7% | Cc1cccc(CSc2nc3nc(C)cc(C)n3n2)c1 | .
24 | -1.5% | 4.5% | -0.1% | Cc1cc(C(F)(F)F)nn1Cc1n[nH]c(=S)n1-c1ccc(Cl)cc1 | -0.6
25 | -3.8% | 3.2% | -44.1% | CCCCc1nc2cc(C(=O)N3CCCCC3COC)ccc2o1 (stereo not given) | .
26 | 1.0% | -7.0% | 2.8% | C=C1C(C(=O)Nc2cccc(OC)c2)C1C(=O)Nc1cccc(OC)c1 (stereo not given) | -4.1
27 | -2.3% | 26.2% | -2.6% | Cc1ccccc1N(CC(=O)NC(C)(C)C)C(=O)CS(=O)CC(=O)Nc1ccc2c(c1)OCO2 (stereo not given) | 17.1
28 | -0.6% | -1.7% | 1.0% | COc1ccc(C2NC(=S)NC(O)(C(F)(F)F)C2C(=O)c2cccs2)cc1 (stereo not given) | 5.2
29 | 3.2% | -10.5% | -49.1% | COc1c(C(=O)NNC(=O)c2ccccc2)csc1Br | -11.7
30 | -1.5% | -11.4% | 5.6% | C=CCn1c(SCC(=O)c2c(N)n(C)c(=O)n(C)c2=O)nc2sc(C)c(C)c2c1=O | 5.8
31 | -0.7% | 18.3% | . | O=C1C[C@@H]2c3c(cccc3CN1Cc1ccccc1Br)C[C@@H](O)[C@H]2O | .
32 | -4.1% | 19.5% | -7.4%&0.6% | COC(=O)c1cc2occc2n1Cc1cccc(C)c1 | -24.7

Compound profiles (already shown).
Listed for `C=C1C(C(=O)Nc2cccc(OC)c2)C1C(=O)Nc1cccc(OC)c1` (stereo not given) : Rango complex inh: 1.0%; Rango dissoc inh: -7.0%; miR-21 reporter: 2.8%; GLA inh pH 4.5: -4.1
Listed for `CCCCc1nc2cc(C(=O)N3CCCCC3COC)ccc2o1` (stereo not given) : Rango complex inh: -3.8%; Rango dissoc inh: 3.2%; miR-21 reporter: -44.1%; GLA inh pH 4.5: .
Listed for `COc1c(C(=O)NNC(=O)c2ccccc2)csc1Br` : Rango complex inh: 3.2%; Rango dissoc inh: -10.5%; miR-21 reporter: -49.1%; GLA inh pH 4.5: -11.7

Other entries follow:
nr | Rango complex inh | Rango dissoc inh | miR-21 reporter | structure | GLA inh pH 4.5
33 | 2.3% | -8.5% | -4.7% | CC(C)NC(=S)N1CCN(S(=O)(=O)c2cccc(C(F)(F)F)c2)CC1 | -4.7
34 | 3.1% | -16.6% | 3.1% | CCC1(c2ccc(F)cc2)NC(=O)N(CC(=O)Nc2ccccc2Cl)C1=O (stereo not given) | .
35 | 5.2% | 11.1% | -10.2% | Cn1c(=O)n(C)c2cc(/C=N/NC(N)=S)ccc21 | 3.1
36 | 10.4% | -29.3% | . | CC(=O)Nc1ccc2c(c1)Cc1ccc(Cl)cc1-2 | .
37 | -2.6% | -5.5% | . | CC(C(=O)NC1(C#N)CCCCC1)N(C)CC(=O)Nc1ccc(Cl)c(Cl)c1 (stereo not given) | .
38 | -2.9% | -9.0% | 0.5% | O=C(NCN1CCOCC1)c1cnccn1 | .
39 | -3.6% | 15.7% | -1.7% | O=C(CCCc1ccccc1)NCc1ccc(F)cc1 | -2.9
40 | 0.6% | 2.5% | -1.0% | CN(c1ccccc1C(=O)Nc1cccnc1)S(C)(=O)=O | 9.8
41 | 0.2% | 2.0% | -21.1% | COc1ccc(CCn2c(S)nc3ccccc3c2=O)cc1 | .
42 | -1.4% | -8.5% | . | O=[N+]([O-])c1ccc(Cl)c(S(=O)(=O)Nc2cccc(-c3ccc(N4CCOCC4)nn3)c2)c1 | .
43 | ? | ? | -6.9% | CCOC(=O)CNc1c(-c2ccc(Cl)cc2)nc2cnccn12 | 3.0
44 | 3.1% | 10.7% | -8.4% | O=C(CCCN1C(=O)c2ccccc2C1=O)Nc1ccccc1C(=O)N1CCOCC1 | 11.7
45 | 0.0% | -10.9% | 5.2% | CCOC(=O)CC1COc2ccccc2N1C(=O)c1ccc(F)cc1 (stereo not given) | 7.0
46 | -1.7% | 2.1% | -7.4% | CCOc1ccc(NC(=O)CN(C)C(=O)c2cccnc2Sc2ccc(C)c(C)c2)cc1OCC | .
47 | -0.2% | -9.7% | -20.9% | COc1ccc(CN2CC(=O)N(c3ccc(C)cc3)C2=S)cc1OC | 8.0
48 | -5.1% | -0.3% | 21.3% | O=C1N=C(N2CCN(c3ccccc3)CC2)S/C1=C\c1cn[nH]c1-c1ccccc1 | 1.6
49 | 2.1% | -1.2% | . | CCN(N=O)c1ccc(C=C2C=Cc3ccccc32)cc1 | .
50 | 0.4% | 8.6% | -2.9% | CCc1ccc(C(=O)OCC(=O)NCC(F)(F)F)cc1 | 5.5
51 | 3.5% | 17.1% | 0.6% | C[C@@H]1CC[C@@]2(OC1)O[C@H]1C[C@H]3[C@@H]4CC=C5C[C@@H](O)[C@H](O)C[C@]5(C)C4CC[C@]3(C)[C@H]1[C@@H]2C (stereo not given in full) | .
52 | -1.9% | -8.8% | -0.2% | O=[N+]([O-])/C(=C\Nc1ccc(F)cc1F)S(=O)(=O)c1ccccc1 | .

This is a subset, so the mix of outcomes need not match the whole.
